Compound activity (PubChem)
D2 potentiator: positive allosteric modulators of human D2 dopamine receptor. DiscoveRx D2 beta-arrestin cells, luminescence, 90 min; 100% = 57 uM dopamine signal. 360,000 compounds, 0.23% hits. AID 624464. potentiation, % (no concentration beside the values). P14416; active = potentiation of 50% or more; inconclusive = 30% to 50%; inactive = 30% or less;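 further: compound concentration not given in the record; tested on top of an EC20 dose of dopamine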
Target sequence (P14416 whole entry, looked up): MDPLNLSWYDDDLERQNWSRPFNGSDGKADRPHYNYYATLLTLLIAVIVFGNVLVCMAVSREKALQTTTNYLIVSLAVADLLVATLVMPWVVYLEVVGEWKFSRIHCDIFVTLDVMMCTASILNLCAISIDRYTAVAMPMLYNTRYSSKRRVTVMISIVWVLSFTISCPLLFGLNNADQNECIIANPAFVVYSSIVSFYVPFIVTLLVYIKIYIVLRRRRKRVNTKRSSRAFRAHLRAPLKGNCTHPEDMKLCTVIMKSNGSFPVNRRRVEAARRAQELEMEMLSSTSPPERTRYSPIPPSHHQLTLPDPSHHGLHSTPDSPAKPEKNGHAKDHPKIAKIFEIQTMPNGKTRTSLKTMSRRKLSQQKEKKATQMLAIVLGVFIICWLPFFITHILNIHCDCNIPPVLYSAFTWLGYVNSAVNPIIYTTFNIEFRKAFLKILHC
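PathHunter beta-arrestin assay in DiscoveRx D2 cells. Compounds were added with an EC20 of dopamine (50 nM final) for 90 min at 37 deg C. Luminescence was read 1 h after detection reagent, with 57 uM dopamine as the EC100 control.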
PINK1 modulator: modulators of PINK1 expression | PINK1 immunofluorescence, high-content cytometry, 24 h | Potency, µM (doses to about 76.6 µM), for the others: at the highest dose activation (PINK1 increase), most hits filed as activators | 410,000 compounds, 0.2% hits | AID 624263; active = well fitted activation curve with a large enough effect; inconclusive = small, poorly fitted or top-dose-only effect; inactive = flat fitted curve, though single readings scatter; cell line not stated here;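 further: potency means the concentration at half of the fitted maximal effect; % of control where 0% means no effect; nearly all actives have a fitted effect of over 65% in size; a mitochondrial uncoupler was the plate control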
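Compound titrations (5 concentrations, 24 h) on a stable cell line; DMSO and CCCP controls. Endpoint: fixed-cell PINK1 immunofluorescence with mitochondrial, cell and nuclear markers, scanned by microplate cytometer.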
TRPML1 agonist: activates the human TRPML1 channel | Q9GZU1 | TRPML1-expressing cells, Ca2+ dye fluorescence, FDSS; host cell line not named in the record; reference of the full effect not given here | activation, % (no concentration beside the values) | 410,000 compounds, 0.12% hits | AID 624414; in the data active = activation above about 50%; inconclusive = about 30% to 50%; inactive = below about 30%; further: 0% is about no effect; the text of the record puts the active cut at 80%
Target sequence (Q9GZU1 whole entry, looked up): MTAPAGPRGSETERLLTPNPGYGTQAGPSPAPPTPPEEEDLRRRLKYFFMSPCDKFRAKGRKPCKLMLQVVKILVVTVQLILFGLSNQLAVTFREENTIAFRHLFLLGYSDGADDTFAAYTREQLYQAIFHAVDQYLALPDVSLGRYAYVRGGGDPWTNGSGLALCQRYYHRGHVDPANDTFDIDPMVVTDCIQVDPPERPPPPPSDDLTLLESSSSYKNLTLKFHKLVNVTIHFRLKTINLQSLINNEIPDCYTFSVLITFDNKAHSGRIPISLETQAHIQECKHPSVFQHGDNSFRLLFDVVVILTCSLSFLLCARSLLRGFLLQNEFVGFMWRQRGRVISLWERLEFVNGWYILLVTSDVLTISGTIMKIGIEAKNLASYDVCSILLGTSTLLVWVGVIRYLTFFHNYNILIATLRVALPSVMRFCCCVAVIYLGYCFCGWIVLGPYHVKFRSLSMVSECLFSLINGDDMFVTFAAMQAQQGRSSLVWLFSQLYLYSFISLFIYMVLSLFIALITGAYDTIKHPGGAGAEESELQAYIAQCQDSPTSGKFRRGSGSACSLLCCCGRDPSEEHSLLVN
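TRPML1-DL cells, Tet-induced overnight (~16 h, 37 degrees C), loaded 45-90 min at room temperature with Ca8 no-wash calcium dye plus quencher. FDSS fluorescence: 10 s baseline, compound pin-transfer, 110 s agonist read, then EC80 54-4 (4uM final) and 110 s antagonist read.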
CtBP-E1A inh: CtBP/E1A binding inhibition. AlphaScreen GST-E1A/His-CtBP binding, 1536-well; active compounds read low; control for the full effect not named in the record. activity change, % (concentration not given with the values). 340,000 compounds, 0.49% hits. AID 651724; in the data active means activity change below about -65%; inconclusive means about -30% to -65%; inactive means above about -30%; further: on the % scale 0 is the no-effect control and ±100 the full control effect
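Protein mix (5X: 125 nM each GST-E1A, His-CtBP) was incubated with pinned compound 2 h at 37 deg C in dark, in 50 mM Tris pH 8.0 buffer with 300 mM NaCl. Glutathione donor and nickel acceptor beads followed; AlphaScreen signal read after 1 h.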
Six1-Eya2 blk: blocks human Six1 binding to Eya2 | Q15475+O00167 | AlphaScreen GST-Six1/His-Eya2 binding, biochemical; active compounds read low; control for the full effect not named in the record | activity change, % (no concentration beside the values) | 360,000 compounds, 0.56% hits | AID 651725; in the data active = activity change below about -65%; inconclusive = about -30% to -65%; inactive = above about -30%; further: on the % scale 0 is the no-effect control and ±100 the full control effect
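GST-Six1 + His-Eya2 (5X stock: 250/500 nM); Tris pH 8.0, 300 mM NaCl, 0.05% BSA, 0.02% Tween 20; GSH donor/Ni acceptor beads; 1 h 37 °C dark; AlphaScreen readout.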
D2 ag: agonists of human D2 dopamine receptor (beta-arrestin) | P14416 | DiscoveRx PathHunter D2 beta-arrestin, luminescence, 90 min; 100% = 57 uM dopamine signal | activation, % (concentration not given with the values) | 360,000 compounds, 0.084% hits | AID 624465; in the data active = activation above about 40%; inconclusive = about 15% to 40%; inactive = below about 15%; further: the text of the record calls up to 30% inactive
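Agonist mode: compounds alone added to overnight-plated D2 PathHunter cells for 90 min at 37 C, with 57 uM final dopamine (EC100) defining full response. Beta-arrestin recruitment detected by chemiluminescent reagent, read after 1 h at ambient temperature.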
* marks the source's active call; other numbers are inactive results; [ ] = dose if it differs, or a comment.

For C#CCOCCOCCOCCNc1nc(N2CCN(C(=O)CCCCCCCCCCNC(=O)Cn3cc(CCCCCN)nn3)CC2)nc(N2CCN(C(=O)CCCCCCCCCCNC(=O)[C@H](CO)n3cc(CCCCCN)nn3)CC2)n1 the results were D2 potentiator -8, PINK1 modulator -0.9%, TRPML1 agonist 1.6, CtBP-E1A inh -12, Six1-Eya2 blk -8 and D2 ag 4.1.
Screening Cc1occc1C(=O)N/N=C/C1=C(N2CCOCC2)C(=C\c2ccc(Cl)cc2)/CC1 returned D2 potentiator -3, PINK1 modulator inconclusive, TRPML1 agonist 0.4, CtBP-E1A inh 0, Six1-Eya2 blk 6 and D2 ag -0.3.
c1ccc2cc(OCc3nc4ccccc4[nH]3)ccc2c1 was read as D2 potentiator -3, PINK1 modulator -1.0%[38.3 µM], TRPML1 agonist 1.3, CtBP-E1A inh 11, Six1-Eya2 blk 7 and D2 ag 0.1.
Screening Cc1ccc(CSCC(=O)N(CCC(C)C)c2c(N)n(Cc3ccccc3)c(=O)[nH]c2=O)cc1 returned D2 potentiator -30, PINK1 modulator -2.3%, TRPML1 agonist 0.8, CtBP-E1A inh 10, Six1-Eya2 blk -6 and D2 ag -3.6.
Cc1cccc(-c2nc(S(=O)(=O)c3ccc(F)cc3)c(NCCCN3CCOCC3)o2)c1 was read as D2 potentiator -38, PINK1 modulator 1.5%, TRPML1 agonist -0.4, CtBP-E1A inh -3, Six1-Eya2 blk -11 and D2 ag -4.1.
C=CCOc1ccc(/C=C/C(=O)Nc2ccc(C(=O)NC)cc2)cc1 was read as D2 potentiator 2, PINK1 modulator 1.2%, TRPML1 agonist -0.5, Six1-Eya2 blk -4 and D2 ag 1.5.
For O=C(Nc1ccc(C(=O)OC[C@@H]2CCCN3CCCC[C@H]23)cc1)c1cccc(Br)c1 the results were D2 potentiator -28, PINK1 modulator 13%, TRPML1 agonist 0.5, CtBP-E1A inh -10, Six1-Eya2 blk -19 and D2 ag -1.8.
For COc1ccc(OC)c(S(=O)(=O)NCCCc2ccccc2)c1 the results were D2 potentiator -2, PINK1 modulator 0.8%, TRPML1 agonist 0.2, CtBP-E1A inh 0, Six1-Eya2 blk 3 and D2 ag 8.8.
Cc1oc2c(C)c(O)ccc2c(=O)c1-c1nncn1-c1ccccc1 was read as D2 potentiator 1, PINK1 modulator 3.1%, TRPML1 agonist 3.0, CtBP-E1A inh 6, Six1-Eya2 blk -6 and D2 ag 1.6.
CCc1nc(NCc2cccnc2)c2oc3ccccc3c2n1 was read as D2 potentiator 9, PINK1 modulator -0.9%, TRPML1 agonist 0.3, CtBP-E1A inh -6, Six1-Eya2 blk -1 and D2 ag 2.1.
For COc1ccccc1NC(=O)C(=O)N/N=C/c1cccs1 the results were D2 potentiator -9, PINK1 modulator -0.9%, TRPML1 agonist 0.8, CtBP-E1A inh -3, Six1-Eya2 blk -5 and D2 ag 1.7.
`CCOc1ccc2nc3cc(NCc4ccc(OC)cc4)ccc3c(N)c2c1` gave D2 potentiator -3, PINK1 modulator 0.2%, TRPML1 agonist 11, Six1-Eya2 blk -5 and D2 ag inconclusive.
For O=C(CCCN1C(=O)CCC1=O)Nc1ccccc1F the results were D2 potentiator -2, PINK1 modulator -1.3%[38.3 µM], TRPML1 agonist 1.5, CtBP-E1A inh 5, Six1-Eya2 blk 1 and D2 ag -4.8.
For O=C(NC1CCCC1)C(c1ccc(F)cc1)N(C(=O)Cc1cccs1)c1ccc2c(c1)OCCO2 (stereo unspecified) the results were D2 potentiator -3, PINK1 modulator 22%[38.3 µM], TRPML1 agonist 0.9, CtBP-E1A inh 2, Six1-Eya2 blk 1 and D2 ag 0.2.
For O=C1c2ccccc2C(=O)N1CC1CCCO1 (stereo unspecified) the results were D2 potentiator -9, PINK1 modulator 0.0%, TRPML1 agonist -0.6, CtBP-E1A inh -2, Six1-Eya2 blk -4 and D2 ag -1.4.
Screening Cn1cnc2c1c(=O)n(CC(O)CO)c(=O)n2C (stereo unspecified) returned D2 potentiator 2, PINK1 modulator 3.0%, TRPML1 agonist 2.3, CtBP-E1A inh -5, Six1-Eya2 blk -5 and D2 ag -2.0.
COc1ccc(NC(=O)C2CCN(c3nc(-c4ccc(OC)cc4)no3)CC2)cc1 was read as D2 potentiator -4, PINK1 modulator 3.6%, TRPML1 agonist -0.1, CtBP-E1A inh 3, Six1-Eya2 blk -2 and D2 ag 0.4.
COc1ccccc1N(CC(=O)NCc1ccccc1C)S(=O)(=O)c1ccc(C)cc1 was read as D2 potentiator -5, PINK1 modulator 1.6%, TRPML1 agonist 0.1, CtBP-E1A inh 1, Six1-Eya2 blk 2 and D2 ag 4.8.
COc1cccc(C(=O)N2CCC(C(=O)NCc3ccc(C)cc3)CC2)c1 was read as D2 potentiator -2, PINK1 modulator 1.9%, TRPML1 agonist 0.3, CtBP-E1A inh -24, Six1-Eya2 blk -9 and D2 ag 9.9.
`O=C(O)c1cccc2c1C(=O)c1cccc3snc-2c13` gave D2 potentiator 1, PINK1 modulator 0.9%, TRPML1 agonist -0.2, CtBP-E1A inh -22, Six1-Eya2 blk -27 and D2 ag -0.2.
Screening Cc1cccc(OCc2ccc(C(=O)Nc3cc(C)on3)o2)c1 returned D2 potentiator -7, PINK1 modulator 0.9%, TRPML1 agonist 0.0, CtBP-E1A inh 1, Six1-Eya2 blk 7 and D2 ag -3.5.
Screening CNc1nc(-c2ccc(S(=O)(=O)N3CCCCC3)cc2)cs1 returned D2 potentiator -6, PINK1 modulator 9.8%, TRPML1 agonist -0.1, Six1-Eya2 blk -3 and D2 ag 0.6.
CCOc1ccc(N2C(=O)CC(Cc3cc(C)cc(C)c3)C2=O)cc1 (stereo unspecified) was read as D2 potentiator 4, PINK1 modulator 1.0%, Six1-Eya2 blk 9 and D2 ag -0.8.
`Cc1ccc(N2CC(C(=O)NCC3CCCO3)CC2=O)cc1Cl` (stereo unspecified) gave D2 potentiator -3, PINK1 modulator -1.9%, TRPML1 agonist 0.5, CtBP-E1A inh 0, Six1-Eya2 blk 9 and D2 ag -2.7.

4 successive entries from above, quoted:
For O=C(CCCN1C(=O)CCC1=O)Nc1ccccc1F the results were D2 potentiator -2, PINK1 modulator -1.3%[38.3 µM], TRPML1 agonist 1.5, CtBP-E1A inh 5, Six1-Eya2 blk 1 and D2 ag -4.8.
For O=C(NC1CCCC1)C(c1ccc(F)cc1)N(C(=O)Cc1cccs1)c1ccc2c(c1)OCCO2 (stereo unspecified) the results were D2 potentiator -3, PINK1 modulator 22%[38.3 µM], TRPML1 agonist 0.9, CtBP-E1A inh 2, Six1-Eya2 blk 1 and D2 ag 0.2.
For O=C1c2ccccc2C(=O)N1CC1CCCO1 (stereo unspecified) the results were D2 potentiator -9, PINK1 modulator 0.0%, TRPML1 agonist -0.6, CtBP-E1A inh -2, Six1-Eya2 blk -4 and D2 ag -1.4.
Screening Cn1cnc2c1c(=O)n(CC(O)CO)c(=O)n2C (stereo unspecified) returned D2 potentiator 2, PINK1 modulator 3.0%, TRPML1 agonist 2.3, CtBP-E1A inh -5, Six1-Eya2 blk -5 and D2 ag -2.0.

The list goes on.
Screening CC1CCC(N2CCN(C(=O)c3ccccc3F)CC2)CC1 (stereo unspecified) returned D2 potentiator 2, PINK1 modulator -0.9%, Six1-Eya2 blk 4 and D2 ag -3.6.
`Cc1ccc2c(c1)COc1c3ccc(C(=O)NC(C)C)cc3nn1-2` gave D2 potentiator -2, PINK1 modulator 5.9%, TRPML1 agonist 0.5, CtBP-E1A inh -2, Six1-Eya2 blk -4 and D2 ag -1.6.
Screening COc1ccc(C=C2SC(=O)NC2=O)cc1OC returned D2 potentiator -4, PINK1 modulator -0.3%, TRPML1 agonist -0.9, CtBP-E1A inh inconclusive, Six1-Eya2 blk -11 and D2 ag 3.7.
For COc1ccc(-n2c(SCc3ccc(C#N)cc3)nnc2-c2ccccn2)cc1 the results were D2 potentiator -6, PINK1 modulator -1.1%, TRPML1 agonist 0.1, CtBP-E1A inh -23, Six1-Eya2 blk inconclusive and D2 ag -2.6.
For CC(C)C(=O)NC(=S)Nc1ccc(S(=O)(=O)N2CCCC2)cc1 the results were D2 potentiator -14, PINK1 modulator -2.8%, TRPML1 agonist 0.5, CtBP-E1A inh 3, Six1-Eya2 blk 18 and D2 ag -3.6.
For O=C(NCCN1CCCC1)c1cccc(Cl)c1 the results were D2 potentiator -14, PINK1 modulator 1.5%, TRPML1 agonist -0.2, CtBP-E1A inh 6, Six1-Eya2 blk 3 and D2 ag -5.3.
Screening O=C(NCc1ccncc1)c1csc([C@@H]2C[C@H](O)[C@@H](CO)O2)n1 returned D2 potentiator -6, PINK1 modulator 1.2%, TRPML1 agonist -0.2, CtBP-E1A inh -3, Six1-Eya2 blk 36 and D2 ag -1.9.
For O=C(NCCCN1CCN(Cc2ccccc2)CC1)c1nnc(Cc2c(F)cccc2Cl)o1 the results were D2 potentiator -12, PINK1 modulator 5.2%[38.3 µM], TRPML1 agonist -0.8, CtBP-E1A inh 2, Six1-Eya2 blk -1 and D2 ag 0.6.
`Cc1ccccc1CCN1CCCC(CN(C)CC(C)(C)C)C1` (stereo unspecified) gave D2 potentiator -25, PINK1 modulator 0.8%, TRPML1 agonist -0.7, Six1-Eya2 blk 2 and D2 ag -5.4.
`CCn1c(=O)c(C(=O)Nc2ncccc2O)c(O)c2ccccc21` gave D2 potentiator -5, PINK1 modulator 0.1%, TRPML1 agonist -0.7, CtBP-E1A inh -4, Six1-Eya2 blk -17 and D2 ag 4.9.
`CCOC(=O)[C@H]1[C@H]2COc3ccc(C)cc3[C@@H]2N2C(=O)c3ccc(F)cc3NC(=O)[C@@]12C` gave D2 potentiator -31, PINK1 modulator -0.4%, TRPML1 agonist -0.1, CtBP-E1A inh 0, Six1-Eya2 blk -6 and D2 ag -2.7.
`Cc1ccc(CNC(=O)CN(c2cccc([N+](=O)[O-])c2)S(C)(=O)=O)cc1` gave D2 potentiator -33, PINK1 modulator -1.0%, TRPML1 agonist 1.2, CtBP-E1A inh 1, Six1-Eya2 blk 1 and D2 ag -4.0.
For O=C(C1CC(=O)N(c2ccc(F)cc2)C1)N1CCCCC1 (stereo unspecified) the results were D2 potentiator -5, PINK1 modulator 1.5%, TRPML1 agonist -0.4, CtBP-E1A inh -1, Six1-Eya2 blk -2 and D2 ag -4.0.
Screening CCn1ncc(Br)c1C(=O)Nc1cc(C)on1 returned D2 potentiator -3, PINK1 modulator 0.8%, TRPML1 agonist 0.7, CtBP-E1A inh 4, Six1-Eya2 blk 1 and D2 ag -1.3.
For S=C(NCC1CCCO1)Nc1ccc(Cl)cc1 (stereo unspecified) the results were D2 potentiator 0, PINK1 modulator -3.1%, TRPML1 agonist -0.4, CtBP-E1A inh 2, Six1-Eya2 blk 3 and D2 ag 1.0.
For Cc1cccc(NC(=O)CSc2nnc(-c3ccco3)n2CC2CCCO2)n1 (stereo unspecified) the results were D2 potentiator 5, PINK1 modulator -0.4%, TRPML1 agonist 0.4, CtBP-E1A inh -20, Six1-Eya2 blk 4 and D2 ag -1.5.
